Screening results: PubChem BioAssay, Broad Institute
UUG fidelity: alters start codon recognition fidelity in yeast; S. cerevisiae UUG-firefly luciferase reporter, luminescence/redox ratio; activity score, % at 18.7 µM; AID 602363; 350,000 tested, 0.13% active;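 active = replicate mean at a twofold rise or more, about +100% in these data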;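 note: firefly luciferase made from a UUG start codon reports start codon fidelity; reporter light over untreated wells divided by growth signal over untreated wells; some hits fall short of that in this replicate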
HIV Env fusion: inhibitors of HIV Env-mediated cell fusion | HeLa-JRFL Env/CEM21 cell fusion, luciferase | inhibition, % at 12.3 µM | 360,000 tested, 1.1% active;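 active = mean replicate inhibition score of at least 50 and every replicate individually at or above 50; inconclusive = only one of the two criteria met; inactive = mean below 50 and not all replicates reaching 50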;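 note: 0% = plate neutral controls and 100% = maraviroc near 300 nM; one replicate is shown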
An asterisk follows results filed as active; [ ] = dose if it differs, or a comment. Not all compounds are listed; rates above refer to the full screens.

What do the screens show for `C[C@H](CO)N1C[C@H](C)[C@H](CN(C)C(=O)C2CCCCC2)Oc2ncc(C#CC3CCCC3)cc2C1=O`?
UUG fidelity: 13; HIV Env fusion: 8[16.7 µM]

What do the screens show for `C[C@H](CO)N1C[C@H](C)[C@@H](CN(C)C)Oc2ncc(C#CCN(C)C)cc2C1=O`?
UUG fidelity: 1; HIV Env fusion: -8[16.7 µM]

How did CC(C)C#Cc1ccc2c(c1)O[C@@H](CN(C)C(=O)Cc1ccccn1)[C@@H](C)CN([C@H](C)CO)S2(=O)=O do in these assays?
UUG fidelity: 10; HIV Env fusion: -21[16.7 µM]

Results for COc1ccc(-c2cnc3c(c2)C(=O)N([C@@H](C)CO)C[C@H](C)[C@H](CN(C)Cc2cccnc2)O3)cc1 ?
UUG fidelity: -6; HIV Env fusion: 3[16.7 µM]

What do the screens show for `CCCC#Cc1ccc2c(c1)O[C@H](CN(C)C(=O)c1ccccn1)[C@H](C)CN([C@H](C)CO)S2(=O)=O`?
UUG fidelity: 6; HIV Env fusion: 7[16.7 µM]

What do the screens show for `C[C@@H]1CN([C@H](C)CO)C(=O)Cc2cc(NC(=O)NC3CCCCC3)ccc2O[C@H]1CN(C)C(=O)Nc1ccc(C(F)(F)F)cc1`?
UUG fidelity: 1; HIV Env fusion: 5[16.7 µM]

How did C[C@@H]1CN([C@@H](C)CO)S(=O)(=O)c2ccc(C3=CCCCC3)cc2O[C@H]1CN(C)Cc1ccccn1 do in these assays?
UUG fidelity: -22; HIV Env fusion: 37[16.7 µM]

How did C[C@H]1CN([C@@H](C)CO)C(=O)c2cc(NS(C)(=O)=O)ccc2O[C@@H]1CN(C)Cc1ccc(Cl)c(Cl)c1 do in these assays?
UUG fidelity: -14; HIV Env fusion: 62*[16.7 µM]

Results for C[C@@H]1CCCCO[C@@H](CN(C)CC2CCCCC2)[C@@H](C)CN([C@@H](C)CO)C(=O)c2cc(NS(=O)(=O)c3cn(C)cn3)ccc2O1 ?
UUG fidelity: 6; HIV Env fusion: 11[16.7 µM]

Results for C[C@@H]1CN([C@@H](C)CO)C(=O)c2cc(C#CC3CC3)cnc2O[C@@H]1CN(C)C ?
UUG fidelity: -4; HIV Env fusion: -17[16.7 µM]

Among those listed so far, these have sulfur:
How did CC(C)C#Cc1ccc2c(c1)O[C@@H](CN(C)C(=O)Cc1ccccn1)[C@@H](C)CN([C@H](C)CO)S2(=O)=O do in these assays?
UUG fidelity: 10; HIV Env fusion: -21[16.7 µM]

What do the screens show for `CCCC#Cc1ccc2c(c1)O[C@H](CN(C)C(=O)c1ccccn1)[C@H](C)CN([C@H](C)CO)S2(=O)=O`?
UUG fidelity: 6; HIV Env fusion: 7[16.7 µM]

How did C[C@@H]1CN([C@@H](C)CO)S(=O)(=O)c2ccc(C3=CCCCC3)cc2O[C@H]1CN(C)Cc1ccccn1 do in these assays?
UUG fidelity: -22; HIV Env fusion: 37[16.7 µM]

How did C[C@H]1CN([C@@H](C)CO)C(=O)c2cc(NS(C)(=O)=O)ccc2O[C@@H]1CN(C)Cc1ccc(Cl)c(Cl)c1 do in these assays?
UUG fidelity: -14; HIV Env fusion: 62*[16.7 µM]

Results for C[C@@H]1CCCCO[C@@H](CN(C)CC2CCCCC2)[C@@H](C)CN([C@@H](C)CO)C(=O)c2cc(NS(=O)(=O)c3cn(C)cn3)ccc2O1 ?
UUG fidelity: 6; HIV Env fusion: 11[16.7 µM]

Next part.
Results for CN(C)CCCNC(=O)C[C@H]1CC[C@@H]2[C@H](COc3ccc(NC(=O)c4cccc(F)c4)cc3C(=O)N2C)O1 ?
UUG fidelity: -8; HIV Env fusion: -6[16.7 µM]

How did O=C(NCC[C@@H]1CC[C@H](NS(=O)(=O)c2cccc(F)c2)[C@@H](CO)O1)C1CC1 do in these assays?
UUG fidelity: -4; HIV Env fusion: -19[16.7 µM]

What do the screens show for `O=C(N[C@@H]1CC[C@@H](CCNS(=O)(=O)c2cccc(Cl)c2)O[C@H]1CO)c1ccncc1`?
UUG fidelity: -10; HIV Env fusion: inactive

Results for O=C(C[C@@H]1CC[C@H](NS(=O)(=O)c2ccc(F)cc2)[C@H](CO)O1)NCc1ccncn1 ?
UUG fidelity: 0; HIV Env fusion: 8[16.7 µM]

What do the screens show for `C[C@@H]1CCCCO[C@H](CN(C)S(=O)(=O)c2ccc(Cl)cc2)[C@@H](C)CN([C@@H](C)CO)C(=O)c2cc(NC(=O)Nc3ccc(F)cc3)ccc2O1`?
UUG fidelity: 1; HIV Env fusion: 9[16.7 µM]

What do the screens show for `CNC(=O)C[C@@H]1CC[C@H]2[C@@H](COc3ccc(NC(=O)c4ccc(F)c(F)c4)cc3C(=O)N2C)O1`?
UUG fidelity: 1; HIV Env fusion: -3[16.7 µM]

What do the screens show for `Cc1ccc(S(=O)(=O)Nc2ccc3c(c2)C(=O)N([C@H](C)CO)C[C@@H](C)[C@@H](CN(C)C(=O)NC2CCCCC2)OCCCC[C@H](C)O3)cc1`?
UUG fidelity: 6; HIV Env fusion: -116[16.7 µM]

What do the screens show for `CCNC(=O)C[C@H]1CC[C@@H]2[C@H](COc3ccc(NC(=O)c4ccccc4Cl)cc3C(=O)N2C)O1`?
UUG fidelity: 8; HIV Env fusion: -24[16.7 µM]

Results for COc1ccc(S(=O)(=O)N(C)C[C@H]2Oc3ccc(NC(=O)Nc4ccc5c(c4)OCO5)cc3CC(=O)N([C@H](C)CO)C[C@H]2C)cc1 ?
UUG fidelity: -6; HIV Env fusion: 16[16.7 µM]

How did C[C@H]1CN([C@@H](C)CO)C(=O)Cc2cc(NC(=O)C3CC3)ccc2O[C@H]1CN(C)Cc1ccc(-c2ccccc2)cc1 do in these assays?
UUG fidelity: 42; HIV Env fusion: -65[16.7 µM]

What do the screens show for `C[C@@H]1CN([C@@H](C)CO)S(=O)(=O)c2ccc(C#Cc3ccncc3)cc2O[C@@H]1CN(C)S(=O)(=O)c1ccccc1`?
UUG fidelity: -13; HIV Env fusion: 19[16.7 µM]

Results for C[C@@H]1CCCCO[C@H](CN(C)C(=O)Nc2ccc(F)cc2)[C@@H](C)CN([C@@H](C)CO)C(=O)c2cc(NS(=O)(=O)c3ccccc3)ccc2O1 ?
UUG fidelity: 10; HIV Env fusion: -13[16.7 µM]

Results for COc1ccc(S(=O)(=O)Nc2ccc3c(c2)C(=O)N([C@H](C)CO)C[C@@H](C)[C@H](CN(C)Cc2ccc(C(=O)O)cc2)OCCCC[C@@H](C)O3)cc1 ?
UUG fidelity: 11; HIV Env fusion: -28[16.7 µM]

How did C[C@H](CO)N1C[C@H](C)[C@@H](CN(C)Cc2cccnc2)Oc2cc(C#CC3CC3)ccc2S1(=O)=O do in these assays?
UUG fidelity: 8; HIV Env fusion: 10[16.7 µM]

What do the screens show for `Cc1noc(C)c1NC(=O)N(C)C[C@@H]1Oc2ccc(NC(=O)Nc3ccc(F)cc3)cc2C(=O)N([C@@H](C)CO)C[C@H]1C`?
UUG fidelity: -6; HIV Env fusion: -9[16.7 µM]

Results for Cc1ccc(S(=O)(=O)Nc2ccc3c(c2)C(=O)N([C@H](C)CO)C[C@H](C)[C@H](CN(C)C(=O)NC(C)C)OCCCC[C@H](C)O3)cc1 ?
UUG fidelity: -22; HIV Env fusion: -154[16.7 µM]

Results for CCCC(=O)Nc1ccc2c(c1)C(=O)N(C)[C@H]1CC[C@@H](CC(=O)Nc3ccccc3)O[C@H]1CO2 ?
UUG fidelity: 5; HIV Env fusion: 3[16.7 µM]

How did C[C@@H]1CN([C@H](C)CO)C(=O)c2cc(-c3ccc(C(=O)N(C)C)cc3)cnc2O[C@H]1CN(C)Cc1ccc(C(=O)O)cc1 do in these assays?
UUG fidelity: -5; HIV Env fusion: 13[16.7 µM]

Results for CNC[C@@H]1Oc2cc(C#CC(C)(C)O)ccc2S(=O)(=O)N([C@@H](C)CO)C[C@@H]1C ?
UUG fidelity: -20; HIV Env fusion: -15[16.7 µM]

How did COc1ccccc1CNC(=O)C[C@H]1CC[C@H]2[C@@H](COC[C@@H](O)CN2Cc2cccc(-c3ccncc3)c2)O1 do in these assays?
UUG fidelity: -10; HIV Env fusion: 4[16.7 µM]

Results for C[C@H](CO)N1C[C@H](C)[C@@H](CN(C)C(=O)Nc2ccc(F)cc2)Oc2ccc(NC(=O)Nc3cccc4ccccc34)cc2CC1=O ?
UUG fidelity: 11; HIV Env fusion: 10[16.7 µM]

What do the screens show for `C[C@@H]1CN([C@H](C)CO)S(=O)(=O)c2ccc(Br)cc2O[C@H]1CN(C)Cc1ccncc1`?
UUG fidelity: 7; HIV Env fusion: 3[16.7 µM]

Results for C[C@H]1CN([C@@H](C)CO)C(=O)c2cc(-c3ccncc3)cnc2O[C@@H]1CN(C)C ?
UUG fidelity: -6; HIV Env fusion: -16[16.7 µM]

What do the screens show for `C[C@H]1CN([C@@H](C)CO)C(=O)Cc2cc(NC(=O)c3ccncc3)ccc2O[C@@H]1CN(C)Cc1ccc(-c2ccccc2)cc1`?
UUG fidelity: 4; HIV Env fusion: inconclusive

What do the screens show for `O=C(C[C@H]1C[C@H](C(=O)N2CCCCC2)[C@@]2(CCc3ccccc3)c3[nH]c4cc(-c5ccco5)ccc4c3CCN2C1=O)NCCN1CCOCC1`?
UUG fidelity: 20; HIV Env fusion: -34

What do the screens show for `C[C@@H]1CCCCO[C@@H](CN(C)CC2CCCCC2)[C@@H](C)CN([C@@H](C)CO)C(=O)c2cc(NS(=O)(=O)c3ccc(F)cc3)ccc2O1`?
UUG fidelity: 23; HIV Env fusion: 6[16.7 µM]

How did N#C[C@H]1[C@H](c2ccccc2)[C@@H](CO)N1S(=O)(=O)c1cccc(F)c1 do in these assays?
UUG fidelity: 14; HIV Env fusion: 5[16.7 µM]

What do the screens show for `Cc1ccc(S(=O)(=O)N(C)C[C@H]2OCCCC[C@@H](C)Oc3ccc(NC(=O)Nc4cccc5ccccc45)cc3C(=O)N([C@@H](C)CO)C[C@H]2C)cc1`?
UUG fidelity: -10; HIV Env fusion: -116[16.7 µM]

Results for Cc1noc(C)c1NC(=O)N(C)C[C@@H]1Oc2ncc(C#CC3CCCCC3)cc2C(=O)N([C@@H](C)CO)C[C@H]1C ?
UUG fidelity: 4; HIV Env fusion: 16[16.7 µM]

What do the screens show for `C[C@H]1CN([C@@H](C)CO)C(=O)Cc2cc(NS(=O)(=O)c3cccs3)ccc2O[C@@H]1CN(C)C(=O)Nc1cccc2ccccc12`?
UUG fidelity: 3; HIV Env fusion: 4[16.7 µM]

What do the screens show for `C[C@H](CO)N1C[C@H](C)[C@H](CN(C)C(=O)C2CCOCC2)Oc2cc(-c3ccc(C(=O)N(C)C)cc3)ccc2S1(=O)=O`?
UUG fidelity: 17; HIV Env fusion: 15[16.7 µM]

How did O=C(N[C@@H]1CC[C@@H](CCn2cc(Cc3ccccc3)nn2)O[C@@H]1CO)c1cnccn1 do in these assays?
UUG fidelity: -11; HIV Env fusion: -44[16.7 µM]

How did C[C@@H]1CCCCO[C@@H](CN(C)S(=O)(=O)c2ccccc2)[C@H](C)CN([C@@H](C)CO)C(=O)c2cc(NS(=O)(=O)c3cccs3)ccc2O1 do in these assays?
UUG fidelity: -7; HIV Env fusion: 2[16.7 µM]

What do the screens show for `COc1ccc([C@H]2C[C@H](O)[C@@H](n3cc(-c4ccc(F)cc4)nn3)CN2C(=O)C2CCCCC2)cc1`?
UUG fidelity: -15; HIV Env fusion: -10

What do the screens show for `Cc1ccc(S(=O)(=O)Nc2ccc3c(c2)C(=O)N([C@H](C)CO)C[C@@H](C)[C@H](CN(C)C(=O)NC(C)C)OCCCC[C@@H](C)O3)cc1`?
UUG fidelity: 38; HIV Env fusion: -130[16.7 µM]

How did C[C@H](CO)N1C[C@H](C)[C@@H](CN(C)CC2CCCCC2)OCCCC[C@H](C)Oc2ccc(NC(=O)NC3CCCCC3)cc2C1=O do in these assays?
UUG fidelity: 12; HIV Env fusion: -23[16.7 µM]

How did C[C@@H]1CN([C@@H](C)CO)C(=O)c2cc(-c3ccc(C#N)cc3)cnc2O[C@H]1CN(C)C(=O)CN(C)C do in these assays?
UUG fidelity: 1; HIV Env fusion: -20[16.7 µM]

How did CC(C)CC#Cc1cnc2c(c1)C(=O)N([C@@H](C)CO)C[C@H](C)[C@@H](CN(C)C(=O)CN1CCOCC1)O2 do in these assays?
UUG fidelity: 3; HIV Env fusion: -1[16.7 µM]

Results for C[C@H]1CCCCO[C@H](CN(C)C(=O)NC2CCCCC2)[C@@H](C)CN([C@@H](C)CO)C(=O)c2cc(NS(=O)(=O)c3ccc(Cl)cc3)ccc2O1 ?
UUG fidelity: -10; HIV Env fusion: 1[16.7 µM]

What do the screens show for `CCC(=O)Nc1ccc2c(c1)C(=O)N(C)[C@H]1CC[C@H](CC(=O)NCCOC)O[C@H]1CO2`?
UUG fidelity: 1; HIV Env fusion: 4[16.7 µM]

What do the screens show for `C[C@H](CO)N1C[C@H](C)[C@H](CN(C)Cc2ccc(C(=O)Nc3ccccc3N)cc2)Oc2ccc(NC(=O)CCC(F)(F)F)cc2CC1=O`?
UUG fidelity: -2; HIV Env fusion: -181[16.7 µM]

What do the screens show for `CS(=O)(=O)N1[C@H](C#N)[C@H](c2ccccc2)[C@H]1CO`?
UUG fidelity: -4; HIV Env fusion: -4[16.7 µM]

How did COc1ccc(NC(=O)N(C)C[C@@H]2OCCCC[C@@H](C)Oc3ccc(NC(=O)C4CCCCC4)cc3C(=O)N([C@H](C)CO)C[C@@H]2C)cc1 do in these assays?
UUG fidelity: -6; HIV Env fusion: -8[16.7 µM]

Results for C[C@H]1CN([C@@H](C)CO)C(=O)c2cc(NS(=O)(=O)c3ccc(F)cc3)ccc2O[C@H]1CN(C)C(=O)Nc1ccccc1 ?
UUG fidelity: 12; HIV Env fusion: -27[16.7 µM]
